Screening data as filed in PubChem.
D2 potentiator = human D2 receptor positive allosteric modulation | P14416 | DiscoveRx D2 beta-arrestin cells, luminescence, 90 min; 100% = 57 uM dopamine signal | potentiation, % (concentration not given with the values) | hit rate 0.23% among 360,000 | AID 624464; active = potentiation of 50% or more; inconclusive = 30% to 50%; inactive = 30% or less;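 also: compound concentration not given in the record; tested on top of an EC20 dose of dopamine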
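PathHunter D2 cells, attached overnight at 37 deg C, received compound in DMSO plus dopamine at EC20 (50 nM final) for 90 min at 37 deg C. Beta-arrestin recruitment was read as luminescence after 1 h with detection reagent at ambient temperature.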
TRPML1 ag = human mucolipin-1 channel agonism. Q9GZU1. TRPML1-expressing cells, Ca2+ dye fluorescence, FDSS; host cell line not named in the record; reference of the full effect not given here. activation, % (test concentration not listed). hit rate 0.12% among 410,000; in the data active = activation above about 50%; inconclusive = about 30% to 50%; inactive = below about 30%; also: 0% is about no effect; the text of the record puts the active cut at 80%
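TRPML1-DL cells, Tet-induced overnight (~16 h, 37 degrees C), loaded 45-90 min at room temperature with Ca8 no-wash calcium dye plus quencher. FDSS fluorescence: 10 s baseline, compound pin-transfer, 110 s agonist read, then EC80 54-4 (4uM final) and 110 s antagonist read.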
D2 ag = activates the human D2 dopamine receptor; P14416; DiscoveRx PathHunter D2 beta-arrestin, luminescence, 90 min; 100% = 57 uM dopamine signal; activation, % (concentration not given with the values); hit rate 0.084% among 360,000; AID 624465; in the data active = activation above about 40%; inconclusive = about 15% to 40%; inactive = below about 15%; also: compound concentration not given in the record; the text of the record calls up to 30% inactive
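Agonist mode: compounds alone added to overnight-plated D2 PathHunter cells for 90 min at 37 C, with 57 uM final dopamine (EC100) defining full response. Beta-arrestin recruitment detected by chemiluminescent reagent, read after 1 h at ambient temperature.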
TRPML1 inh = blocks the human TRPML1 channel | Q9GZU1 | TRPML1-inducible cells, Ca2+ dye fluorescence, FDSS; hits give low values; inhibition of EC80 agonist-evoked calcium signal | activity change, negative = inhibition, % (no concentration beside the values) | hit rate 0.02% among 390,000 | AID 624415; in the data active means activity change below about -50%; inconclusive means about -30% to -50%; inactive means above about -30%;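 also: stimulus is agonist 54-4 at its EC80 concentration; % is scaled to controls: 0 for no effect and ±100 for the full control effect; compound concentration not given in the record; the text of the record puts the active cut at -80%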
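Calcium fluorescence in TRPML1-DL cells induced overnight with Tet: a 110 s read after compound pin addition, then a 110 s antagonist read after challenge with 54-4 at 4 uM final (EC80).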
PINK1 expr mod = PINK1 expression modulation; PINK1 immunofluorescence, high-content cytometry, 24 h; Potency, µM (doses to about 76.6 µM), for the others: at the top dose activation (PINK1 increase), most hits filed as activators; hit rate 0.2% among 410,000; active = well fitted activation curve with a large enough effect; inconclusive = small, poorly fitted or top-dose-only effect; inactive = flat fitted curve, though single readings scatter; cell line not stated here;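 also: potency is read from the fitted curve at half-maximal effect; % of control where 0% means no effect; nearly all actives have a fitted effect of over 65% in size; a mitochondrial uncoupler was the plate control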
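A stable cell line was treated with compounds at 5 concentrations for 24 hours, with CCCP as control. PINK1 levels and mitochondrial localization were measured by immunofluorescence with mitochondrial, cell and nuclear markers after fixation, read by laser-scanning cytometry.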
Six1-Eya2 blk = inhibitors of human Six1/Eya2 interaction. Q15475+O00167. AlphaScreen GST-Six1/His-Eya2 binding, biochemical; hits give low values; control for the full effect not named in the record. activity change, % (test concentration not listed). hit rate 0.56% among 360,000. AID 651725; in the data active = activity change below about -65%; inconclusive = about -30% to -65%; inactive = above about -30%; also: % is scaled to controls: 0 for no effect and ±100 for the full control effect; compound concentration not given in the record
Target sequence (O00167 whole entry, looked up): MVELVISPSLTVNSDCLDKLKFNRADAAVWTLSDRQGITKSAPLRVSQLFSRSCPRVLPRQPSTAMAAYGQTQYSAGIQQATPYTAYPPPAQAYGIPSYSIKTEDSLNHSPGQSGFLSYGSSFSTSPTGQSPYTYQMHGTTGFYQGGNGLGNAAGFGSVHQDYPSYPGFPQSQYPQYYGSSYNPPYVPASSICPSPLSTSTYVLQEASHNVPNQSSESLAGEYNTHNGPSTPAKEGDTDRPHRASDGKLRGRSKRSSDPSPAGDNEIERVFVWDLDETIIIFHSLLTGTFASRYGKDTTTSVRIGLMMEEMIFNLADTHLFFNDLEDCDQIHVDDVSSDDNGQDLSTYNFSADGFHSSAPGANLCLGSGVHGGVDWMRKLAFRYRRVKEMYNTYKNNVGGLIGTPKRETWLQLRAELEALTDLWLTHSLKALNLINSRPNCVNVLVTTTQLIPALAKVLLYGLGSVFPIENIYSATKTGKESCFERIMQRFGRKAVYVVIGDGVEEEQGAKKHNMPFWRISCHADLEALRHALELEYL
Target sequence (Q15475 whole entry, looked up): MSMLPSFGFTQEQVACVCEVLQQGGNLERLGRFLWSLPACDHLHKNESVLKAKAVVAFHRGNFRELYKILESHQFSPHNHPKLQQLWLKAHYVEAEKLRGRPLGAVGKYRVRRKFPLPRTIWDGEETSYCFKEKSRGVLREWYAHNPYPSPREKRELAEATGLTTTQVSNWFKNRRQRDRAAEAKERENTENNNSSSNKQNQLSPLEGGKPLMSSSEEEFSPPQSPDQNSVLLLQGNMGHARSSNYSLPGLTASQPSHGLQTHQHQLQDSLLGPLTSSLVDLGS
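Six1/Eya2 binding was read as AlphaScreen signal after compounds were pinned into GST-Six1 plus His-tagged Eya2 (5X stock 250/500 nM) in pH 8.0 Tris/NaCl/TCEP buffer, beads added, then incubated 1 h, 37 C, dark.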
* = called active by the depositor; ? = inconclusive; nt = not tested or not shown; [ ] = dose if it differs, or a comment.

SMILES | D2 potentiator | TRPML1 ag | D2 ag | TRPML1 inh | PINK1 expr mod | Six1-Eya2 blk
COCCCNC(=O)CCn1c(=O)c2ccccc2n(CC(=O)Nc2ccccc2C)c1=O | -10 | -0.9 | -1.0 | -5 | -2.3% | -1
CCOC(=O)C1=NN(c2ccc(OC)cc2)C(c2ccccc2)CC1=O (stereo unspecified) | -22 | 2.3 | -4.2 | -8 | 0.8% | -11
CN(C)CCC(=O)N1C/C(=C/c2ccccc2)C(=O)/C(=C\c2ccccc2)C1 | -31 | 1.8 | -11 | 7 | -6.2% | 21
CCCCC1=CC2=CC(=O)C(C)(OC(=O)CC)C(=O)C2=CN1Cc1ccccc1 (stereo unspecified) | 9 | 0.4 | 3.0 | 16 | 3.4% | -5
CCCn1c(N)c(C(c2ccc(C(=O)OC)cc2)N2CCN(c3ccccc3)CC2)c(=O)[nH]c1=O (stereo unspecified) | -5 | -0.9 | -0.8 | 4 | 0.9% | -5
COc1cc(OC)cc(C(=O)c2c(C)c(C#N)c3ccccn23)c1 | -1 | 0.6 | 0.3 | 11 | -2.3% | -5
O=C(O)COc1ccc(/C=N/NC(=O)C(O)(c2ccccc2)c2ccccc2)cc1 | -4 | -1.1 | -0.6 | -6 | 0.4% | 4
CCCOc1ccc(CC(=O)NCCc2ccccc2)cc1OC | 0 | 1.5 | -1.0 | 7 | 2.8% | 6
CCOC(=O)c1nn(-c2ccc(Cl)cc2)c(=O)c(C#N)c1C | 0 | 0.8 | -3.2 | 4 | 1.9% | -4
C#CCOc1c(Br)cc(/C=N/O)cc1OCC | -4 | 0.6 | -2.6 | 12 | 1.8% | 5
CCCS(=O)(=O)NC(=O)C1(C)CCCN(C(=O)c2cc3ccccc3s2)C1 (stereo unspecified) | -5 | 0.1 | -5.4 | -19 | 2.2% | 12
CCOC(=O)c1[nH]c2ccc(OC)cc2c1NC(=O)CN1CCSCC1 | -13 | 0.3 | -3.0 | 15 | 0.4% | -10
CC(=O)Oc1c(-c2ccc(Br)o2)oc2ccccc2c1=O | -6 | 4.0 | -4.5 | 7 | 8.8% | -5
COCCNC(=O)CSc1c2c(nc3cc(Cl)ccc13)CCCC2 | nt | -0.4 | nt | 11 | 0.5% | nt
COc1cc(C(=O)NCC(=O)NCCN2C(=O)S/C(=C\c3ccc4c(c3)OCO4)C2=O)cc(OC)c1OC | -13 | 1.6 | 0.5 | 0 | -4.8% | -1
O=C(CCc1ccccc1)N1CCN(Cc2ccc(F)cc2Cl)CC1 | -1 | -0.2 | -1.5 | 0 | 0.7% | 0
Cc1c(C#N)c(N)nc(Cl)c1C#N | -1 | 0.0 | 2.1 | 8 | -0.9% | -9
Cc1ccc(S(=O)(=O)Nc2cc(=O)[nH]c(SCC(=O)Nc3cccc(C)c3)n2)cc1 | -13 | 0.2 | -2.6 | -3 | 0.4% | -26
CCOC(=O)Nc1sc2c(c1C#N)CCC(C)C2 (stereo unspecified) | 10 | 0.0 | 0.3 | -10 | 5.3% | -2
O=C(c1cc(C2CC2)nn1-c1ccccc1)N1CCN(Cc2ccccc2)CC1 | -44 | -0.7 | -1.4 | 11 | 0.9% | -9
CC1CCCC(C)N1C(=O)CN1C(=O)c2ccccc2S1(=O)=O (stereo unspecified) | 2 | -1.1 | -0.9 | 5 | -0.1% | 0
O=C(NNC(=O)C1CC=CCC1C(=O)O)c1ccc(Cl)cc1 (stereo unspecified) | -11 | -0.1 | 3.0 | -2 | 0.7% | 9
CCCCN(C)S(=O)(=O)c1ccc(C(=O)Nc2sc3c(c2C(=O)OCC)CCN(C(C)C)C3)cc1 | nt | 19 | nt | -2 | 11% | nt
Cc1ccc(C)c(OCc2cc(C(=O)NC3CCN(Cc4ccccc4)CC3)no2)c1 | -51 | 0.0 | 0.4 | 4 | 3.1% | 0
O=C(NCc1ccc2c(c1)OCO2)C1CC(=O)N(C2CCCCCCC2)C1 (stereo unspecified) | -1 | 2.6 | -0.7 | 1 | -2.1%[38.3 µM] | 1

Entries of single compounds from above. Screens in order: D2 potentiator, TRPML1 ag, D2 ag, TRPML1 inh, PINK1 expr mod, Six1-Eya2 blk
Profile of O=C(c1cc(C2CC2)nn1-c1ccccc1)N1CCN(Cc2ccccc2)CC1 = -44, -0.7, -1.4, 11, 0.9%, -9
Profile of Cc1ccc(C)c(OCc2cc(C(=O)NC3CCN(Cc4ccccc4)CC3)no2)c1 = -51, 0.0, 0.4, 4, 3.1%, 0
Profile of C#CCOc1c(Br)cc(/C=N/O)cc1OCC = -4, 0.6, -2.6, 12, 1.8%, 5

A different layout for some results above.
> Cc1ccc(C)c(OCc2cc(C(=O)NC3CCN(Cc4ccccc4)CC3)no2)c1
  D2 potentiator = -51
  TRPML1 ag = 0.0
  D2 ag = 0.4
  TRPML1 inh = 4
  PINK1 expr mod = 3.1%
  Six1-Eya2 blk = 0
> O=C(NCc1ccc2c(c1)OCO2)C1CC(=O)N(C2CCCCCCC2)C1 (stereo unspecified)
  D2 potentiator = -1
  TRPML1 ag = 2.6
  D2 ag = -0.7
  TRPML1 inh = 1
  PINK1 expr mod = -2.1%[38.3 µM]
  Six1-Eya2 blk = 1

Further compounds
SMILES | D2 potentiator | TRPML1 ag | D2 ag | TRPML1 inh | PINK1 expr mod | Six1-Eya2 blk
CC(C)(C)NC(=O)CN(C(=O)c1ccc(Cl)nc1)c1cccc2ccccc12 | 7 | 0.5 | -1.2 | -10 | 0.6% | -10
O=C(NCCc1ccc(Cl)cc1)c1ccc(CS(=O)Cc2cccc(Cl)c2)o1 (stereo unspecified) | nt | -0.6 | nt | 4 | 0.4% | nt
N#Cc1ccc(OC(=O)c2cc(-c3ccc4c(c3)OCCO4)on2)cc1 | nt | 0.4 | nt | 13 | 2.5% | nt
CC(=O)c1ccc(OCC(C)C)c(CN2CCCCC2)c1 | -8 | -0.7 | -3.8 | 25 | 1.1% | 0
CCc1cc(=O)oc2cc(OC3CCCCC3=O)ccc12 (stereo unspecified) | -3 | 0.7 | -3.0 | -1 | 1.9% | 3
O=C(Nc1c(Cl)ccc2nsnc12)c1ccc([N+](=O)[O-])o1 | 26 | -0.8 | ? | -5 | 0.1% | 11
Cn1c(=O)c2c(nc(Cl)n2CC(=O)N2CCCCC2)n(C)c1=O | -2 | 0.4 | -2.1 | 3 | 0.4% | -1
COc1ccc(Nc2nc(N3CCN(S(=O)(=O)N(C)C)CC3)nc3ccccc23)cc1 | 0 | 1.0 | -3.2 | 47 | 1.0% | -2
CCOC(=O)c1cnc(SCC(=O)Nc2nc(C)c(C)s2)nc1N | -1 | 1.1 | 0.5 | -5 | 1.6% | -1
O=C(Nc1ccccc1)c1cc(C2CCCN(C(=O)c3cccs3)C2)on1 (stereo unspecified) | 3 | -0.8 | 12 | nt | 0.2% | -8
CC1(C)CC(=O)C=C(c2n[nH]nc2-c2ccc(F)c(F)c2)C1 | 7 | -0.4 | -5.9 | -1 | 0.0% | 0
CCc1ccc(N(C(=O)CCC(=O)Nc2cc(C)on2)C(C(=O)NC2CCCC2)c2ccco2)cc1 (stereo unspecified) | -16 | 0.2 | -5.2 | 9 | -1.3% | -9
O=C(CCC1CCCN(Cc2cccc(Cl)c2)C1)NCc1ccccc1F (stereo unspecified) | -19 | 0.1 | -2.1 | 37 | 2.8% | 3
CC(C)(C)c1ccc(/C=N/NC(=O)Cc2c[nH]c3ccccc23)cc1 | 13 | 2.4 | -0.9 | 4 | 2.3% | -3
CN(C)NC(=O)C(NC(=O)c1ccccc1)C12CC3CC(CC(C3)C1)C2 (stereo unspecified) | -2 | 0.6 | -3.1 | -11 | -1.1% | 5
Cc1ccc(CCN2CC(C(=O)NCc3cccnc3)CC2=O)cc1 (stereo unspecified) | 3 | -0.4 | -7.4 | -1 | -0.4% | 8
Cc1cc(C)cc(-n2ncc3c2CCCC3NC(=O)c2ccccc2N2CCOCC2)c1 (stereo unspecified) | -16 | 0.3 | -3.8 | 5 | 0.3% | -7
CC(C)OP(=O)(Nc1cccc2ccccc12)OC(C)C | 1 | -1.0 | 0.2 | 4 | 1.7% | 2
CCS(=O)(=O)c1ccc(C(=O)N2CCN(c3nc4c(OC)ccc(C)c4s3)CC2)cc1 | nt | -0.5 | nt | 9 | 0.9% | nt
COc1ccc(/C=N/NC(=O)c2ccn[nH]2)cc1Cn1cc([N+](=O)[O-])cn1 | 10 | 2.1 | -3.0 | 4 | -0.4% | -1
CCn1cc(/C=C(\NC(=O)c2cc(OC)c(OC)c(OC)c2)C(=O)N2CCOCC2)c2ccccc21 | -15 | -0.2 | -6.0 | -4 | 0.6% | -13
CCCn1nc2cc(C(=O)NCc3ccc(C)cc3)ccc2c1OCC | -8 | 0.7 | -7.2 | -24 | -1.0% | 1
COc1cccc(CNC(=O)COC(=O)C2CC3CCCC(C2)C3=O)c1 (stereo unspecified) | -7 | -0.5 | 1.3 | 17 | 0.1% | 5
CN(Cc1ccccc1)Cc1cc(=O)oc2ccccc12 | -3 | 0.5 | -4.2 | nt | 1.7% | 0
O=[N+]([O-])c1ccc(-n2cccn2)c(-c2nn[nH]n2)c1 | 5 | 3.4 | -1.5 | -9 | -0.2% | 4
The results go on:
SMILES | D2 potentiator | TRPML1 ag | D2 ag | TRPML1 inh | PINK1 expr mod | Six1-Eya2 blk
COC(=O)c1cccc(NC(=O)CCCN2C(=O)NC3(CCCC3)C2=O)c1 | 15 | 1.2 | -2.4 | 0 | -0.1% | -5
CN(C)S(=O)(=O)c1cccc(-c2nn(-c3ccccc3)cc2/C=C(/C#N)C(=O)NCc2ccco2)c1 | -7 | 0.9 | -0.5 | 14 | ? | -8
O=C(NCCc1ccc(Cl)cc1)c1nnc(Cc2ccc(F)cc2)o1 | nt | 0.8 | nt | 24 | 2.5% | nt
O=C(CCn1c(=O)sc2ccccc21)NCc1ccccc1 | -11 | -0.1 | -3.8 | 0 | -1.3% | 0
CC(=O)Nc1ccc(NC(=O)C(C)Sc2nc3ccccc3c(=O)n2CC2CCCO2)cc1 (stereo unspecified) | -14 | 0.0 | -3.1 | -2 | 5.0% | 0
Cc1cccc(C2CC(c3ccccc3)=NN2c2ccc(S(N)(=O)=O)cc2)c1 (stereo unspecified) | -1 | 2.7 | -3.0 | 13 | 1.0% | 38
Cn1c(-c2ccc(Cl)cc2)cnc1N | -5 | 0.5 | -0.9 | 11 | nt | 4
O=S(=O)(NCC1CCCO1)c1ccc(Cl)c2ccccc12 (stereo unspecified) | -6 | -0.5 | -7.7 | 20 | 2.8% | -2
O=C(c1cnc(Cl)c(Cl)c1)N1CCN(S(=O)(=O)c2ccc3ccccc3c2)CC1 | -26 | 1.6 | -1.1 | -18 | -1.6% | -3
C=CCn1c(SCC(=O)c2cccs2)nc2sc(CC)cc2c1=O | -11 | 2.9 | -2.1 | -20 | nt | 9
CCn1cc(CNC(=O)/C=C/c2ccc([N+](=O)[O-])cc2)c(C)n1 | 1 | 0.6 | -1.2 | 2 | -4.7%[38.3 µM] | -1
COc1cc2c3c(cccc3c1)C(=O)N(CCN1CCCC1)C2=O | -17 | 0.4 | -8.1 | 21 | -1.2% | -5
